LT uptake inh – inhibitors of anthrax lethal toxin internalization | Cells, anthrax lethal toxin internalization, FRET ratio (460/530) | Potency, µM (top dose mostly 40 µM), without a hit: at the top dose activity change, negative = inhibition, hits mostly inhibitors | 70,000 compounds, 0.67% hits | AID 912; active = well fitted falling ratio curve with the 530 nm signal flat; inconclusive = other ratio curves, or a change in one channel alone; inactive = flat curves in the ratio and both channels; the % refers to the ratio; note: % is set by controls: 0 for no effect and ±100 for the full control effect; nearly all actives have a fitted effect of over 50% in size; tested in ME-180 cells; beta-lactamase reporter
SmPrx2 inh – blocks S. mansoni peroxiredoxin 2 enzymatic activity. Potency, µM. 65,000 compounds, 0.07% hits. S. mansoni Prx2 activity coupled to TGR/GSH (TGR is thioredoxin glutathione reductase), NADPH fluorescence loss, qHTS; some inactives read as strong as hits; active means full or partial inhibition curve with a strong effect at the top dose; inconclusive means weaker partial or single-point curve; inactive means no accepted curve; note: series up to 57 µM; many of its hits are not listed in these tables
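Coupled assay in which S. mansoni TGR passes NADPH reducing equivalents via glutathione to Prx2, which reduces H2O2. Compounds were preincubated 15 min at room temperature with 25 nM TGR/50 nM Prx2 mix. Kinetic NADPH fluorescence loss (ex 365/em 450 nm) was monitored.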
* marks the source's active call; other numbers are inactive results; ? = inconclusive; . = no result given; & = joins results of further samples; [ ] = dose if it differs, or a comment. Potency is the fitted concentration of half-maximal effect. Only part of the results is shown. The share of hits here may be higher or lower than overall.

SMILES	LT uptake inh	SmPrx2 inh
CCCCN1CCC(COC(=O)c2cc(Cl)c(N)c3c2OCCO3)CC1	13%	>57
CCOCC(=O)Nc1ccc(F)c(F)c1	-9%	>57
Cc1ccc(C)c(N2C(=O)CN=C2Nc2ccccc2Cl)c1	-16%	>57
CCOc1ccc(N(CC(=O)O)S(=O)(=O)c2ccc(F)cc2)cc1	1%	>57
COc1ccc(O[C@H]2C=C[C@@H](c3ccccc3)O[C@@H]2CON=C(C)C)cc1	-8%[8 µM]	.
COc1ccc(CSc2nnnn2C)cc1F	3%	>57
COc1ccccc1NC(=O)CSc1nc2ccccc2n1C(C)=O	-5%	>57
O=C(COc1ncnc2ccc(Br)cc12)N1CCOCC1	-9%	>57
FC(F)(F)c1ccccc1-c1cc(NCc2ccccc2)ncn1	18%	>57
CCCCC#Cc1nc(N)c2ncn([C@@H]3O[C@@H](C(=O)NCC)[C@H](O)[C@@H]3O)c2n1	-16%	>57
CCCc1c(-c2ccc(O)cc2)nn(-c2ccc(O)cc2)c1-c1ccc(O)cc1	?	>57&>57
Cc1cc2ccccc2c(=O)n1CC(=O)NCC(=O)N1CCN(c2ccccc2)CC1	-8%	>57
COCCNC(=O)C(C)Oc1ccc(Cl)cc1Cl (configuration not stated)	-2%	.
CN1C(=O)N(C)C2C1NC(=O)N2C (configuration not stated)	-4%	>57
C=C(C)C1CC=C(C)C(O)C1 (configuration not stated)	-4%	.
CC(C)C(=O)Nc1ccc(N2CCN(S(C)(=O)=O)CC2)cc1	-2%	>57
CO[C@@H]1COC(=O)[C@H](C)NC(=O)C/C=C\[C@@H](C)[C@@H](NS(=O)(=O)c2ccc(C)cc2)COC(=O)C/C=C\[C@@H]1C	3%[1.6 µM]	.
C=CCNC(=O)C(C)Sc1ccc(Cl)cc1 (configuration not stated)	-1%	>57
CC(=O)Cc1nsc(NC(=O)c2ccc(COc3ccc(C)cc3)o2)n1	-18%	>57
CCOc1ccc(OCC)c(NC(=O)CSc2nc3ccccc3c(=O)n2C)c1	0%	>57
O=C(CSc1nnc(-c2ccco2)n1CC1CCCO1)c1ccccc1 (configuration not stated)	-12%	>57
O=C1c2ccccc2C(=O)N1c1ccccc1S(=O)C(F)(F)F (configuration not stated)	-8%	>57
Cc1ccccc1CN1CCN(C(=O)c2cccc(F)c2)CC1	6%	>57
O=C(Nc1cccnc1)C1(F)C(F)(F)C(F)(F)C(F)(F)C(F)(F)C1(F)F	14%	>57
CN(C)C(=O)CSc1nc2ccccc2c(=O)[nH]1	-5%	>57
CC(C)(C)n1nnnc1C(c1ccccc1)N1CCc2ccccc2C1 (configuration not stated)	-21%	>57
Cc1cc(-n2ccc(=O)[nH]c2=O)nc(-c2ccccc2)n1	0%	>57
COc1ccc(NC(=O)CSc2nncs2)cc1OC	5%	>57
CN1CCN(c2ncc3ncc(=O)n(CCc4ccccc4)c3n2)CC1	10%	>57
COc1ccc(OCC(O)Cn2c(=N)n(CCN3CCCCC3)c3ccccc32)cc1 (configuration not stated)	?	>57
Cc1ccc(S(=O)(=O)N2CCCC2C(=O)O)cc1 (configuration not stated)	-2%	>57
O=c1c(-c2ccccc2)coc2c(CN3CCCC3)c(O)ccc12	14%	>57
CC1CCCCN1CCNC(=O)C1CC(=O)N(c2ccc(F)c(Cl)c2)C1 (configuration not stated)	-3%	>57
COc1cc2c(cc1NC(=O)CSCC(=O)O)oc1ccccc12	-4%	>57
COc1ccc(NC(=O)C23CCC(C2)C(C)(C)C3=O)cc1 (configuration not stated)	-3%	>57
Cc1nc2nc3c(cn2n1)C(=O)CC(c1ccccc1)C3 (configuration not stated)	-17%	>57
N#Cc1cn(-c2ccccc2)nc1-c1ccccc1	-6%	>57
CC(C)(C)c1ccc(NC(=O)COC(=O)C2=COCCO2)cc1	-9%	>57
O=C(Nc1ccccc1)N1CCC(c2nc(-c3ccc(S(=O)(=O)N4CCOCC4)cc3)no2)CC1	?	>57
Cc1ccc(CNC2=NCCCCC2)n1C	-13%	>57
Cc1ccc(C)c(C(=N)c2ccccc2Cc2ccccc2)c1	-3%[8 µM]	>57
Cc1ccnc(SCCn2c(Br)nc3c2c(=O)n(C)c(=O)n3C)n1	4%	>57
FC(F)(F)c1cc(-c2ccco2)nc(-n2nc(C(F)(F)F)cc2C2CC2)n1	?	>57
Cc1ccc(Cn2ccc(NC(=O)CCSc3nc(-c4ccco4)cc(C(F)(F)F)n3)n2)cc1	-9%	>57
COc1cccc2sc(N)nc12	?	.
CC1(C)CC(=O)C(C(=O)CCCCC(=O)C2C(=O)CC(C)(C)CC2=O)C(=O)C1	2%	>57
Nc1nc(N2CCOCC2)nc(N(c2ccccc2)c2ccccc2)n1	-5%	>57
CC[n+]1ccc(C)c2cc(S(=O)C(F)(F)F)ccc21 (configuration not stated)	-14%	>57
CCCCC[C@H](O)/C=C/[C@H]1[C@H](O)CC(=O)[C@@H]1C/C=C\CCCC(=O)O	-12%	.
CCN(CC)C(=O)c1cc2c(=O)n3cccc(C)c3nc2n1C	5%	>57
COc1cc(C)c(S(=O)(=O)N2CCN(C)CC2)cc1C	-2%	>57
O=C(CSc1ncn(-c2ccccc2)n1)c1cccs1	8%	>57
CN(C)c1ccc(C(=S)N2CCN(c3ccccc3)CC2)cc1	-21%	>57
O=C(O)c1cccc([N+](=O)[O-])c1	?	.
COc1ccc2nc(NCN3C(=O)c4ccccc4C3=O)sc2c1	?	>57
Cc1c(N=Cc2ccncc2)c(=O)n(-c2ccccc2)n1C	-7%	>57
COCCN(C(=O)CCC(=O)Nc1ccccn1)C(C(=O)NC1CCCC1)c1ccc(OC)cc1 (configuration not stated)	?	>57
O=C(NCCCCO)C(F)(F)C(F)(F)C(F)(F)C(=O)NCCCCO	-4%	>57
CN1CC[C@@]2(CCN3CCc4c(oc5ccccc45)[C@@H]3C2)N(C)C1=O	9%	>11
Cc1ccccc1OCC(=O)NCCN(C)C	3%	>57

Going on with the list:
SMILES	LT uptake inh	SmPrx2 inh
COCCn1c(=O)c(-c2cn(C)c3ccccc23)nc2cnc(N3CCOCC3)nc21	4%	>57
COCc1[nH]nc2c1C1(CCSCC1)C(C#N)=C(N)O2	5%	>57
Cc1cccc(-n2ncc3c(NCc4ccc5c(c4)OCO5)ncnc32)c1	.	>57
CCN(CC)S(=O)(=O)c1ccc(-c2nnc(SCC(=O)c3ccc(OC)cc3)o2)cc1	-10%	>57
Cc1ccc(CC2CC(=O)N(c3ccncc3)C2=O)cc1 (configuration not stated)	5%	>57
CCOCC(=O)Nc1cccc(NC(C)=O)c1	?	>57
COc1cccc(C2=CC(c3ccc(N(C)C)cc3)n3ncnc3N2)c1 (configuration not stated)	?	>57
CCCC(c1nnnn1Cc1ccco1)N1CCN(C2CCCC2)CC1 (configuration not stated)	3%	>57
COc1ccc(CCNC(=O)C2CCCN(S(=O)(=O)c3cccc4nonc34)C2)cc1OC (configuration not stated)	-9%	>57
Cc1csc(NC(=O)CSc2nnc(-c3ccoc3C)n2Cc2ccco2)n1	12%	>57
Cc1cc(=O)[nH]c(-c2ccccc2O)n1	4%	>57
CCN(CC)CCNC(=O)c1ccc(CS(=O)(=O)c2ccc(Br)cc2)o1	-26%	>57
CN(C)c1ccc(CNn2cnnc2)cc1	-15%	>57
Cc1ccc2c(c1)[nH]c1c(=O)n(CCCN3CCOCC3)cnc12	-3%	>57
CC1CCC(C(=O)O)NC1c1cccc(N2CCOCC2)c1 (configuration not stated)	-6%[8 µM]	.
CCOc1ccccc1CNc1ccc(N2CCOCC2)c(C(=O)O)c1	3%	>57
CCSc1nnc(Nc2ccccc2)s1	-7%	>57
O=C(CC1(C(F)(F)F)OCCO1)Nc1ccc2c(c1)OCO2	1%	>57
Cn1c(CCNC(=O)c2ccco2)nc2cc(NC(=O)C3CCCCC3)ccc21	?	>57
CC1(C)CC(=O)C(C=Nc2ccccc2)=C(O)C1	1%	.
CC1CCc2c(nc3ncnn3c2N2CC(C)OC(C)C2)C1 (configuration not stated)	?	>57
CCC(=O)Nc1ccc(NC(=O)c2ccco2)cc1	-12%	>57
C=CCn1c(=O)c2ccccc2n2c(SCC(=O)/C(C#N)=C(\C)N)nnc12	?	>57
CCN(CC)C(=O)CSc1nc2cccnc2n1-c1ccccc1OC	-12%	>57
O=C(NC1=NCCS1)C1Cc2ccccc2CN1C(=O)c1ccccc1 (configuration not stated)	-26%	>57
CCn1c(SCC(=O)Nc2cc(C)ccc2C)nc2c(c1=O)SC(C)C2 (configuration not stated)	-9%	>57
CCSc1nc(C)cc(Oc2ccc(=O)n(C)n2)n1	-10%	>57
COC(=O)c1[nH]c2ccccc2c1NC(=O)CN1CCN(c2cccc(OC)c2)C(C)C1 (configuration not stated)	?	>57
Oc1ccccc1C1=Nc2ccccc2N=C(c2ccco2)C1	-8%	>57
Cn1c(=O)c(C(=O)Nc2cnccn2)c(O)c2ccccc21	10%	>57
CC(=O)N1CCN(c2ccccc2NC(=O)COc2ccc(Cl)cc2Cl)CC1	.	>57
Cc1cc2c(cc(C(=O)OC(C(=O)NCc3ccco3)C(C)C)n2C)o1 (configuration not stated)	-6%	>57
Cc1nnc(SCC(=O)NCc2ccc3c(c2)OCO3)[nH]c1=O	2%	>57
N#Cc1c(NC(=O)CSc2ncn(-c3ccccc3)n2)sc2c1CCCC2	.	>57
Cc1c(NC(=O)c2cc(-n3cnnc3)ccc2Cl)cccc1-c1nc2ccccc2o1	7%	>57
CCc1nc(Sc2nc(C)cc(C)n2)c2oc3ccccc3c2n1	-6%	>57
COC(=O)c1nc2n(n1)C(c1cccc(Cl)c1)C1=C(CCCC1=O)N2 (configuration not stated)	-4%	>57
Cc1cc2c(cc1C)C(=O)NC(C)(C)C2	-9%	.
Cc1nc(N2CCCC2)c2ccsc2n1	12%	>57
COc1cccc(Cn2c(=O)c(-c3ccc(F)cc3)nc3cnc(OC)nc32)c1	?	>57
COc1cc(NC(=O)Nc2ccccc2OC)c(OC)cc1NC(=O)CN1CCCCC1	-19%	>57
Cc1cc(NC(=O)c2ccc(NC(=O)c3cccs3)cc2)no1	?	>57
CC(=O)OCC(OC(C)=O)C(OC(C)=O)C(OC(C)=O)C(=O)Nc1ccc(C)cc1 (configuration not stated)	6%	>57
O=C(COc1ccc2ccccc2c1Br)Nn1cnnc1	-7%	>57
CCc1cc(Cl)c(OC)c(C(=O)NC[C@@H]2CCCN2CC)c1O	?	>57
Cc1cccc(OCCn2c(CCCO)nc3ccccc32)c1	6%	>57
COC(=O)NC(c1cccs1)C(C(C)=O)C(=O)OC (configuration not stated)	-14%[8 µM]	.
CCOc1ccc(N2C(=O)CSC2c2ccncc2)cc1 (configuration not stated)	1%	>57
COc1ccc(-c2noc(CCC(=O)N3CCN(Cc4ccccc4)CC3)n2)cc1	8%	>57
O=C(CCN1CCc2ccccc2C1)Nc1ccc(F)cc1	-5%	>57
COc1cccc(-n2c(SCC(N)=O)nnc2-c2ccncc2)c1	1%	>57
Clc1ccc(Cl)c(-c2nn3c(Cn4cnc5ccccc54)nnc3s2)c1	-8%	>57
Nc1nonc1-n1nncc1-c1ccccc1	-1%	>57
CCc1cc2c(NCCN3CCCCC3)ncnc2s1	-9%	>57
Cc1ccc(-c2nnc3c4ccccc4c(C)nn23)cc1NC(=O)CN1CCOCC1	-5%	>57
COCCCNC(=O)CC(NS(=O)(=O)c1ccc(Cl)cc1)c1ccco1 (configuration not stated)	6%	>57
CCS(=O)(=O)N1CCC(C(=O)NCCc2ccc(OC)c(OC)c2)CC1	14%	>57
OC(CCN1CCOCC1)(c1ccc(Cl)cc1)C1CCCCC1 (configuration not stated)	-18%	>57

In the list so far, these contain a furan ring, fused or not:
SMILES	LT uptake inh	SmPrx2 inh
CC(=O)Cc1nsc(NC(=O)c2ccc(COc3ccc(C)cc3)o2)n1	-18%	>57
O=C(CSc1nnc(-c2ccco2)n1CC1CCCO1)c1ccccc1 (configuration not stated)	-12%	>57
COc1cc2c(cc1NC(=O)CSCC(=O)O)oc1ccccc12	-4%	>57
FC(F)(F)c1cc(-c2ccco2)nc(-n2nc(C(F)(F)F)cc2C2CC2)n1	?	>57
Cc1ccc(Cn2ccc(NC(=O)CCSc3nc(-c4ccco4)cc(C(F)(F)F)n3)n2)cc1	-9%	>57
CN1CC[C@@]2(CCN3CCc4c(oc5ccccc45)[C@@H]3C2)N(C)C1=O	9%	>11
CCCC(c1nnnn1Cc1ccco1)N1CCN(C2CCCC2)CC1 (configuration not stated)	3%	>57
Cc1csc(NC(=O)CSc2nnc(-c3ccoc3C)n2Cc2ccco2)n1	12%	>57
CCN(CC)CCNC(=O)c1ccc(CS(=O)(=O)c2ccc(Br)cc2)o1	-26%	>57
Cn1c(CCNC(=O)c2ccco2)nc2cc(NC(=O)C3CCCCC3)ccc21	?	>57
CCC(=O)Nc1ccc(NC(=O)c2ccco2)cc1	-12%	>57
Oc1ccccc1C1=Nc2ccccc2N=C(c2ccco2)C1	-8%	>57
Cc1cc2c(cc(C(=O)OC(C(=O)NCc3ccco3)C(C)C)n2C)o1 (configuration not stated)	-6%	>57
CCc1nc(Sc2nc(C)cc(C)n2)c2oc3ccccc3c2n1	-6%	>57
COCCCNC(=O)CC(NS(=O)(=O)c1ccc(Cl)cc1)c1ccco1 (configuration not stated)	6%	>57

Assay outcomes as filed in PubChem BioAssay.
